# AID504770: E. coli YBA685 growth inhibition, screen for V. cholerae RctB inhibitors; z-score (no concentration beside the values); hit rate 0.27% among 130,000; E. coli YBA685 rctB-dependent plasmid, OD600 growth, 3 h; stronger effect = lower value; AID 504770;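 active means z-score under -2 on both plates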;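 further: wells of about 30 µL received 100 nL stock; score is relative to mean and SD of the test wells; the first replicate is given; strong numbers were not always called active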
# Ba CapD inh: blocks the Bacillus anthracis CapD enzyme; z-score (no concentration beside the values); AID 492967; purified CapD enzyme, fluorescence intensity read-out; stronger effect = lower value; some hits fall short of the stated cut; hit rate 0.23% among 140,000;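 active means z-score under -4 in either of two replicates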;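 further: stock transfer was 100 nL into about 40 µL; score is relative to mean and spread of the plate; one replicate is shown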
# Starred values were filed as active, the others as inactive; . = no result given.
SMILES,AID504770,Ba CapD inh
NC(=O)CSc1nc2sc3c(c2c(=O)n1-c1cccc2ccccc12)CCCC3,.,-0.05
O=C1c2ccccc2-c2ccccc21,0.9,.
NNC(=O)Cc1cc(=O)n(-c2ccc(F)cc2)[nH]1,0,.
COC(=O)c1scc(C)c1NNC(=O)C(F)(F)F,-0.5,-0.72
CN1/C(=C\C(=O)COC(=O)c2ccccc2)C(C)(C)c2ccccc21,1.2,0.14
C=CCN(C(=O)Cn1c(C(=O)OC)cc2occc21)c1ccccc1,2,-0.44
Cc1cc(C(=O)CSc2nc3ccccc3c(=O)[nH]2)c(C)n1-c1ccc2c(c1)OCO2,1.3,.
COc1ccc(N(CC(=O)N2CCN(c3ccccc3OC)CC2)S(=O)(=O)c2ccccc2)c(OC)c1,.,0.94
CCCN1CCN(c2ncnc3sc(C(=O)N4CCN(c5ccc(OC)cc5)CC4)c(C)c23)CC1,.,0.45
CCN1CCN(Cc2ccc(NC3=NS(=O)(=O)C(c4ccc(C)c(C)c4)=C3C)cc2)CC1,1.4,-2.5
COC(=O)C(C)Oc1cc(O)c2c(=O)cc(-c3ccccc3)oc2c1 (centres undefined),-0.7,0.33
COc1ccc(C2(N3CCC4(CC3)OCCO4)C(=O)c3ccccc3C2=O)cc1,0.5,-1.8
CC1CCN(S(=O)(=O)c2cccc3nonc23)CC1,.,-0.93
O=C(Nc1ccc(Oc2ccc(Cl)cc2)cc1)c1cc2ccc(O)cc2oc1=O,.,0.18
CCCOc1ccc(C(=O)NCC2CCCO2)cc1 (centres undefined),-1,-0.71
COc1ccc(N2CC(C(=O)Nc3ccc(S(=O)(=O)N4CCCC4)cc3)CC2=O)cc1 (centres undefined),-0.95,.
CC(C)N(Cc1ccccc1)C(=O)Cn1c(=O)cnc2ccccc21,-0.8,.
CCc1nnc(NS(=O)(=O)c2ccc(N3C(=O)C4CC=C(Cl)CC4C3=O)cc2)s1 (centres undefined),0.95,-0.1
CC1(C)CC(=O)c2cc(C#N)c(=O)n(-c3ccccc3)c2C1,0,.
CCCOc1ccc(C2C(C(=O)/C=C/c3ccco3)=C(O)C(=O)N2CCCN2CCOCC2)cc1 (centres undefined),-0.9,.
Cc1noc(C)c1CC(C#N)(Cc1c(C)noc1C)c1nc2ccccc2s1,1.9,.
NC(=O)C12CCCC(CCC1)C2,-0.75,0.07
CC1CC(C)CN(S(=O)(=O)c2ccc(C(=O)Nc3nnc(-c4ccccn4)o3)cc2)C1 (centres undefined),0.5,.
Cc1onc2c(=O)[nH]nc(-c3ccccc3)c12,-0.25,0.2
CN(C)c1ccc(/C=N/NC2=NCCN2)cc1,2.2,50

# A draw from above in order of length of the SMILES, rising.
SMILES,AID504770,Ba CapD inh
O=C1c2ccccc2-c2ccccc21,0.9,.
CN(C)c1ccc(/C=N/NC2=NCCN2)cc1,2.2,50
COC(=O)c1scc(C)c1NNC(=O)C(F)(F)F,-0.5,-0.72
NNC(=O)Cc1cc(=O)n(-c2ccc(F)cc2)[nH]1,0,.
CCc1nnc(NS(=O)(=O)c2ccc(N3C(=O)C4CC=C(Cl)CC4C3=O)cc2)s1 (centres undefined),0.95,-0.1
Cc1cc(C(=O)CSc2nc3ccccc3c(=O)[nH]2)c(C)n1-c1ccc2c(c1)OCO2,1.3,.
CCN1CCN(Cc2ccc(NC3=NS(=O)(=O)C(c4ccc(C)c(C)c4)=C3C)cc2)CC1,1.4,-2.5

# Following part
SMILES,AID504770,Ba CapD inh
CCOc1cc(/C=C2/SC(=Nc3ccccc3)N(N(C)C)C2=O)ccc1O,.,-0.61
NNC(=O)c1nn(-c2ccccc2)c(=O)c2c(N)scc12,0.35,-0.61
CN(C)C(=O)CSc1nc2ccccc2s1,1.1,.
C[C@]12CC[C@H](O)C[C@@H]1CC[C@@H]1[C@@H]2CC[C@]2(C)C(=O)CC[C@@H]12,.,-0.17
CCN(CC)c1ccc2c(c1)OC(N)=C(C#N)C2c1cccc(F)c1 (centres undefined),0.55,.
CCc1ccc(NC(=S)NN)cc1,0,0.86
CCC(=O)Nc1nc2ccccc2n1Cc1ccccc1C,.,0.06
COC(=O)C1(C)Cc2ccc(Br)cc2C(=O)O1 (centres undefined),-0.6,.
Cc1nc(N)c(C#N)c(-c2ccc(Br)s2)c1C,0.15,3.8
CC(=O)N1CC(C(=O)Nc2cccc(-c3nnc4n3CCCCC4)c2)Oc2ccccc21 (centres undefined),-0.55,.
CC(=O)Nc1ccccc1OCC(=O)N(C1CCCCC1)C1CCCCC1,0.55,.
Cc1noc(/C=C/N(C)C)c1S(=O)(=O)NC1CCCCC1,0,-4.2*
Cn1c(=O)c2c(nc3n(-c4ccc(F)cc4)c(-c4ccccc4)cn23)n(C)c1=O,.,-0.18
Cc1ccc(-c2nc(CS(=O)CC(=O)Nc3ccc(F)cc3C)c(C)o2)cc1 (centres undefined),-1.3,-0.54
CC(C)C1C(=O)NN(c2ccccc2)C1=S (centres undefined),-0.4,0.36
COc1ccc(OCC(O)CN2CCS(=O)(=O)CC2)cc1 (centres undefined),2.2,0.34
N#CC1=C(SCC(=O)Nc2cc(Cl)ccc2C#N)NC2=C(C(=O)CCC2)C1c1cccnc1 (centres undefined),-0.5,.
COc1ccccc1-c1nn(CCC(=O)NCCc2ccc(Cl)cc2)c2nc(C)cc(C)c12,-0.2,-0.91
CN1C(=S)NNC(=O)c2cc(Cl)ccc21,0.65,63
COc1cc(OC)cc(-c2nc(NC(=O)c3cccc(N4C(=O)NC5CC4(C)Oc4ccccc45)c3)n[nH]2)c1 (centres undefined),-0.15,-0.22
c1ccc(-c2nc(-c3cccnc3)n[nH]2)nc1,-0.2,0.73
c1ccc(-c2nnc(COc3ncnc4sccc34)o2)cc1,0.35,.
CCCCSc1sc(C(=O)OCC)c2c1C(=O)CCC2,.,-0.23
CSc1nnc(/N=C/c2ccccc2O)s1,0.2,-0.17
O=C(OCCCCc1ccccc1)N1CCN(c2ccc(C(F)(F)F)cn2)CC1,.,3.2

# The list goes on, overlapping the part above by four compounds.
SMILES,AID504770,Ba CapD inh
c1ccc(-c2nnc(COc3ncnc4sccc34)o2)cc1,0.35,.
CCCCSc1sc(C(=O)OCC)c2c1C(=O)CCC2,.,-0.23
CSc1nnc(/N=C/c2ccccc2O)s1,0.2,-0.17
O=C(OCCCCc1ccccc1)N1CCN(c2ccc(C(F)(F)F)cn2)CC1,.,3.2
CC(C)Cc1nnc(NC(=O)CSc2nc(=O)cc(N)n2-c2ccccc2)s1,-0.7,-0.54
COC(=O)c1cc2sc(C)cc2n1CC(=O)NCCc1ccccc1,-0.8,-0.05
CCCCCOC(=O)C1=C(C)NC2=C(C(=O)CCC2)C1c1cc(OC)c(OC)cc1Br (centres undefined),.,1.1
COC(=O)CNS(=O)(=O)c1ccc(Oc2ccc(S(=O)(=O)NCC(=O)OC)cc2)cc1,-0.3,0.34
O=C(c1ccccc1)N1CCCC(C(=O)N2CCC(Cc3ccccc3)CC2)C1 (centres undefined),0.3,-0.51
COc1ccc(NC2=CC(=O)N(c3ccc(OC)cc3)C2=O)cc1,0.05,0.46
OC(CCN1CCN(C(c2ccccc2)c2ccccc2)CC1)C(F)(F)C(F)(F)F (centres undefined),-0.3,0.015
O=C(O)CC(CP(c1ccccc1)c1ccccc1)C(=O)O (centres undefined),-1,0.03
CCOC(=O)CNc1ncnc2scc(-c3ccccc3)c12,0.45,-0.2
CC(=O)Oc1ccc(-c2csnn2)cc1,-0.85,0.97
Nc1nccc(-c2ccc(Oc3ccc(Cl)cc3)cc2Cl)n1,-2.2,0.43
CC(C)C(=O)Nc1sc2c(c1C(N)=O)CCCC2,-0.65,.
Nc1cc(C(=O)O)cc(C(=O)O)c1,-0.4,.
Cn1nc(C(C)(C)C)cc1C(=O)Nc1ccc(C(C)(C)C)cc1,1.8,-1.2
Cc1ccc(S(=O)(=O)N2CCC(C#N)=C(O)c3ccccc32)cc1,0.1,-1.1
Cc1c(C(=O)N2CCCC2)c(S(=O)(=O)N(C)Cc2ccccc2)c(C)n1C,-0.15,-0.035
Cc1nn(CCc2nc(-c3ccco3)cs2)c2nc(-c3cccs3)cc(C(F)(F)F)c12,1.9,.
C/C(=N/NC(N)=O)C1(O)CCCCC1,-1.2,0.49
COc1ccc(-n2c(=S)[nH]c3cc(C(=O)NCc4ccccc4Cl)ccc3c2=O)c(OC)c1,.,0.065
CN(C(=O)Cn1cnc2c(cnn2C)c1=O)C1CCCCC1,-3.8,.
CSc1ccccc1NC(=O)CCn1c(=O)sc2ccccc21,-1.3,.
Cc1oc(C)c(C(=O)O)c1CN,1.6,-0.08
O=C(Nc1cc(C(=O)N2CCCCCC2)ccc1N1CC2CC(C1)c1cccc(=O)n1C2)c1ccc(Br)o1 (centres undefined),.,0.32
C1=C(CCNc2ncnc3c2cnn3-c2ccccc2)CCCC1,-0.05,0.18
CN(CCC#N)C(=O)c1cc(Cl)ccc1Cl,0.2,0.42

# More entries:
SMILES,AID504770,Ba CapD inh
COc1ccc(NC(=S)NC2CC(C)(C)NC(C)(C)C2)cc1,-0.55,2.3
Cc1cc(NC(=O)NCc2ccccc2)c(C(F)(F)F)o1,1.6,-0.075
O=C(CN1CCCCC1)N1CCN(C(=O)c2ccccc2)C1,.,-0.33
N#CCCn1nnc2ccccc21,-0.75,0.005
CCC(=O)Nc1c2c(nn1-c1ccc(C)cc1)CS(=O)C2 (centres undefined),.,0.36
COc1ccc(C(O)c2nnc(-c3ccccc3)o2)cc1OC (centres undefined),0.5,.
CCOc1ccc2c(c1)C1=C(SC(C(=O)OC)=C(C(=O)OC)C13SC(C(=O)OC)=C(C(=O)OC)S3)C(C)(C)N2C(=O)C(F)(F)F,.,0.62
O=C(CSc1nnc2c(n1)-c1cccc3cccc-2c13)Nc1cccc([N+](=O)[O-])c1,.,-0.015
CCCC(NS(=O)(=O)c1cccc2nsnc12)C(=O)O (centres undefined),.,-0.75
O=C1OC(/C=C/c2ccccc2)=NC/1=C/c1ccco1,0.8,0.85
COC(=O)c1ccc(OCC(O)CNC(C)(C)C)cc1 (centres undefined),0.7,0.12
Cn1c(Cl)cnc1C1CC(=O)c2cc(Cl)ccc2O1 (centres undefined),-0.8,-0.39
CCN(CC)CC(=O)O,-1.1,.
CC1(O)CCOCC1NC(Cc1cc2ccccc2[nH]1)C(=O)O (centres undefined),-1,2.1
C#CCONC(=O)c1cc(OCC(F)(F)F)ccc1OCC(F)(F)F,.,0.53
N#CCS(=O)(=O)Cc1ccco1,.,0.18
N#Cc1ccc(Cn2cccn2)cc1,-0.2,.
Cn1nnnc1SCC(=O)N1CCCC1c1ccc2c(c1)OCCCO2 (centres undefined),0.1,.
O=C(Cn1nc(-c2ccccc2)ccc1=O)Nc1ccc(F)cc1,-1,0.055
COc1ccc(C(=O)N2CCC(c3ccccc3OC)CC2)cc1,.,0.53
NC(=O)c1oc2ccc(Br)cc2c1N,.,31
Clc1ccc(OCc2noc(-c3ccsc3)n2)cc1,0.5,-0.24
Cc1ccc(NC(=O)NC(=O)CN2C(=O)C3CC=CCC3C2=O)c(C)c1 (centres undefined),-0.4,.
CC1Cc2ccccc2N1C(=O)CSc1nnc2c(n1)[nH]c1ccccc12 (centres undefined),-0.9,.
Cc1nc(N2CCOCC2)c2c(C)c(C(=O)Nc3cccc([N+](=O)[O-])c3)sc2n1,.,-1

# A different layout for some results above:
# Every second line gives: AID504770, Ba CapD inh
C#CCONC(=O)c1cc(OCC(F)(F)F)ccc1OCC(F)(F)F
  ., 0.53
N#CCS(=O)(=O)Cc1ccco1
  ., 0.18
N#Cc1ccc(Cn2cccn2)cc1
  -0.2, .
Cn1nnnc1SCC(=O)N1CCCC1c1ccc2c(c1)OCCCO2 (centres undefined)
  0.1, .

# (cont.)
SMILES,AID504770,Ba CapD inh
CCC(C)C(=O)Nc1ccc(-c2nc3ccccc3o2)cc1 (centres undefined),-0.3,104
Cc1cc2c(C)cc(=O)oc2c2c1NCCC2,0,.
O=C(NCc1ccccc1)c1ccc(-c2nc3ccccc3s2)s1,-0.1,4.7
O=C(OC1CCS(=O)(=O)c2sccc21)c1cccc(C(F)(F)F)c1 (centres undefined),.,-0.29
O=c1nc2c(-c3ccccc3)n[nH]n2c2ccccc12,-0.5,-0.08
COc1ccc(C2C(C(=O)N(C)c3ccc(C(C)C)cc3)CC(=O)N2c2ccc(OC)cc2)cc1 (centres undefined),-1,0.22
Cc1cccc(C(=O)NC(=S)Nc2ccc(N3CCN(C)CC3)cc2)c1,-0.5,-0.85
O=c1ccc2ccc3occc3c2o1,-0.55,10
Nc1ccc(C(c2ccc(N)cc2)C2NC(=O)c3ccccc32)cc1 (centres undefined),-0.55,12
COc1ccccc1/C=C/C(=O)OCC(=O)N1CCCCC1,1.8,.
Cc1nc([N+](=O)[O-])cn1Cc1ccc(F)cc1,.,-0.65
CCCn1c(-c2ccncc2)n[nH]c1=S,0.35,0.22
COC(=O)c1nnc2nc(-c3ccc(Cl)cc3)cc(C)n12,-0.25,.
O=c1cc(O)c2ccccc2n1Cc1ccccc1F,0.15,.
CCCCNc1c2c(nc3ccccc13)CC(C)(C)CC2O (centres undefined),-0.75,.
Cc1ccc(Oc2nnc(-c3cccs3)c3ccccc23)cc1,-0.05,35
CCCCCCCCOc1ccc(C(=O)CCC(=O)O)cc1,.,-1.1
CC1(C)C(=O)C2(C(=O)NCCc3ccccc3)CCC1C2 (centres undefined),-0.95,-0.02
Cc1cc(C)n2cc(CSC3CCCC3)nc2n1,-0.3,98
O=C(O)CSc1n[nH]c(-c2ccccc2)n1,.,0.085
Cc1cccc(CS(=O)(=O)c2ccc(Cl)cc2)c1F,-0.4,0.21
Cc1cc(=O)[nH]c(SCSc2nc(C)cc(=O)[nH]2)n1,2.4,.
CC(=O)NC1C(=O)N=C(SCc2ccccc2)NC1=O (centres undefined),1.2,0.78
Cn1c(=O)c2c(nc(N3CCOCC3)n2CCCc2ccccc2)n(C)c1=O,.,0.48
CCn1cc(C(=O)O)c(=O)c2cnc(N3CCN(C(=S)NCc4ccccc4)CC3)nc21,-3.4*,1.1

# Compound activity as filed in PubChem.

# Random draw from the library, and some 0.37% of all compounds hit somewhere here.
